# Screening data as filed in PubChem BioAssay.
# TRPML1 ag: qHTS for Agonists of the Human Mucolipin Transient Receptor Potential 1 (TRPML1); activation, % (no concentration beside the values); TRPML1-expressing cells, Ca2+ dye fluorescence, FDSS; host cell line not named in the record; reference of the full effect not given here; 0.12% of 410,000 active; Mucolipin-1 (Homo sapiens), Q9GZU1; in the data active = activation above about 50%; inconclusive = about 30% to 50%; inactive = below about 30%; further: 0% is about no effect; the text of the record puts the active cut at 80%
# Target sequence (Q9GZU1 whole entry, looked up): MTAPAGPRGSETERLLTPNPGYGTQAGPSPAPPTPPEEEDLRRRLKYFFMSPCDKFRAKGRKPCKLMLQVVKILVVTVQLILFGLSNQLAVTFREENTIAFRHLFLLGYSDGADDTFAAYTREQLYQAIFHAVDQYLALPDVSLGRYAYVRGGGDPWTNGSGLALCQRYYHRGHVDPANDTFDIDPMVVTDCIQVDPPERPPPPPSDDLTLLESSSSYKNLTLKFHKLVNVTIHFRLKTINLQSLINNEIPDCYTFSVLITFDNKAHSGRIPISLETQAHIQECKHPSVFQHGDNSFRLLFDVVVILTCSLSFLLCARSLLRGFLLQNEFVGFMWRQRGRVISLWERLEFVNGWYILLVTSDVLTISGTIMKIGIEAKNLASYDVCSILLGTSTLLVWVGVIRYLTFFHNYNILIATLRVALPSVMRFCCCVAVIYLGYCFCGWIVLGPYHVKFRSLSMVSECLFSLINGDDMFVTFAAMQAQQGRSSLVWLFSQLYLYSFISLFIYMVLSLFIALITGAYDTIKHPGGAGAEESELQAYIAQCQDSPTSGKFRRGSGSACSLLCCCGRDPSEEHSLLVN
#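 Kinetic FDSS Ca2+ read in Tet-induced TRPML1-DL cells (ABD Ca8 dye plus quencher, 45-90 min RT loading): baseline, then compound, then 110 s agonist window; EC80 agonist 54-4 at 4uM final added afterwards for a 110 s antagonist window.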
# CtBP-E1A blk: qHTS Assay for Inhibitors of the CtBP/E1A Interaction; AlphaScreen GST-E1A/His-CtBP binding, 1536-well; active compounds read low; control for the full effect not named in the record; 0.49% of 340,000 active; AID 651724, 2012; CtBP / adenovirus E1A interaction (AlphaScreen); activity change, % (test concentration not listed); in the data active means activity change below about -65%; inconclusive means about -30% to -65%; inactive means above about -30%; further: on the % scale 0 is the no-effect control and ±100 the full control effect
#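 Homogeneous bead-based format: GST-tagged E1A captured on glutathione donor beads, His-tagged CtBP on nickel acceptor beads; compounds precede bead addition by 2 h at 37 °C.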
# TRPV1 PAM: HTS Assay for Compounds that Act as Potentiators of the Vanilloid Receptor 1; TRPV1-expressing cells, Fluo-8 calcium influx, capsaicin EC20 potentiation; host cell line not named in the record; control for the full effect not named in the record; potentiation, % at 8.33 µM; Transient receptor potential cation channel subfamily V member 1 (Homo sapiens), Q8NER1; 0.02% of 320,000 active; AID 540277, 2011; active means potentiation above 80%; inconclusive means 30% to 80%; inactive means below 30%; further: 0% is about no effect
#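 TRPV1-expressing cells were cultured overnight at 35.5C and loaded with Fluo-8 calcium dye for 40 to 90 min at room temperature. After a 10 s baseline, compound was added and calcium influx was read kinetically for 3 min (ex 480/em 520 nm).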
# Six1-Eya2 inh: qHTS Assay for Inhibitors of the Six1/Eya2 Interaction. AlphaScreen GST-Six1/His-Eya2 binding, biochemical; active compounds read low; control for the full effect not named in the record. activity change, % (concentration not given with the values). 0.56% of 360,000 active; in the data active = activity change below about -65%; inconclusive = about -30% to -65%; inactive = above about -30%; further: on the % scale 0 is the no-effect control and ±100 the full control effect
#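 GST-Six1 + His-Eya2 (5X stock: 250/500 nM); Tris pH 8.0, 300 mM NaCl, 0.05% BSA, 0.02% Tween 20; GSH donor/Ni acceptor beads; 1 h 37 °C dark; AlphaScreen readout.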
# TRPML1 blocker: qHTS for Inhibitors of the Human Mucolipin Transient Receptor Potential 1 (TRPML1) | Mucolipin-1 (Homo sapiens), Q9GZU1 | TRPML1-inducible cells, Ca2+ dye fluorescence, FDSS; active compounds read low; inhibition of EC80 agonist-evoked calcium signal | activity change, negative = inhibition, % (no concentration beside the values) | 0.02% of 390,000 active; in the data active means activity change below about -50%; inconclusive means about -30% to -50%; inactive means above about -30%;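 further: stimulus is agonist 54-4 at its EC80 concentration; on the % scale 0 is the no-effect control and ±100 the full control effect; compound concentration not given in the record; the text of the record puts the active cut at -80%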
#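 TRPML1-DL cells, Tet-induced overnight (~16 h, 37 °C) at 1,500 cells/well, were loaded with Ca8 no-wash dye plus quencher for 45-90 min at room temperature. Compounds were pinned during FDSS kinetic reading; agonist 54-4 at EC80 (4 uM final) then added.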
# D2 PAM: Beta-Arrestin HTS for Positive Allosteric Modulators of the Human D2 Dopamine Receptor: Potentiators | AID 624464, 2012 | D(2) dopamine receptor (Homo sapiens), P14416 | 0.23% of 360,000 active | DiscoveRx D2 beta-arrestin cells, luminescence, 90 min; 100% = 57 uM dopamine signal | potentiation, % (concentration not given with the values); active = potentiation of 50% or more; inconclusive = 30% to 50%; inactive = 30% or less;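 further: compound concentration not given in the record; tested on top of an EC20 dose of dopamine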
# Target sequence (P14416 whole entry, looked up): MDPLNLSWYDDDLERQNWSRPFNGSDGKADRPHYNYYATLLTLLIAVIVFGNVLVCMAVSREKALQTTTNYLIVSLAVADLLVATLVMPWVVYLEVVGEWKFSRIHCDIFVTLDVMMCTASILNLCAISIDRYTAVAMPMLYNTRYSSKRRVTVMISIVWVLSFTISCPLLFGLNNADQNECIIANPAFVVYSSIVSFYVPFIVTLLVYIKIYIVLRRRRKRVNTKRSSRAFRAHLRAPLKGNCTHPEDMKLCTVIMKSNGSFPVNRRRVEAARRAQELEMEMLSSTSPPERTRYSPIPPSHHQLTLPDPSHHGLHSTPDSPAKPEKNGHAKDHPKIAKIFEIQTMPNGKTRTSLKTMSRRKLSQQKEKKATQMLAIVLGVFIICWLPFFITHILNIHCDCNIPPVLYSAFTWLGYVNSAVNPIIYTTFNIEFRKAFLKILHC
#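 PathHunter D2 cells, attached overnight at 37 deg C, received compound in DMSO plus dopamine at EC20 (50 nM final) for 90 min at 37 deg C. Beta-arrestin recruitment was read as luminescence after 1 h with detection reagent at ambient temperature.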
# * hit, by the source's call; ? = inconclusive; . = no result given.
# The line under a structure holds: TRPML1 ag	CtBP-E1A blk	TRPV1 PAM	Six1-Eya2 inh	TRPML1 blocker	D2 PAM
> CC(C)C(O)(CC#CCN1CCCC1)c1ccccc1 (stereo unspecified)
  0.9	5	-20	-3	-1	-30
> COc1ccc(N(CC(=O)NCc2ccc(Cl)cc2)S(=O)(=O)c2c(C)n[nH]c2C)cc1
  -0.7	0	2	0	7	3
> CN(CC(=O)Nc1cccc2ccccc12)C(=O)/C=C/c1cccs1
  0.4	-21	4	-13	2	1
> O=C1CCC(Cc2ccccc2)N1 (stereo unspecified)
  0.3	-8	8	0	-15	-10
> CCN(CC)c1ccc(NC(=O)C2CCCC2)cc1
  -0.2	-13	-8	-15	-2	-3
> COC1OC(CO)C(N=C(C)C)C1O (stereo unspecified)
  0.5	0	.	12	-10	-3
> NNC(=O)CS(=O)(=O)CS(=O)(=O)CC(=O)NN
  -0.5	-6	-2	-8	1	-8
> O=C(Cn1nnc(-c2cc(C(F)(F)F)cc(C(F)(F)F)c2)n1)NNC(=S)Nc1ccc(Cl)cc1
  2.1	0	.	5	4	-7
> O=C(COC(=O)COc1ccccc1F)NC1CC1
  -0.3	.	.	7	-8	1
> c1ccc2cc(CN3CCOCC3)ccc2c1
  0.7	-12	7	3	35	-16
> O=C1Nc2ccc(F)cc2C12OCCO2
  -0.2	-20	6	7	-15	8
> CN(C)CCCNc1nc2cc(-c3ccsc3)sc2c(=O)n1C
  -0.6	1	.	-3	.	-3
> CCSc1nnc(NC(=O)COc2ccccc2)s1
  0.2	4	5	2	-1	-6
> COc1ccc(C2CC(c3ccccc3)=NN2C(=O)COC(=O)CNC(=O)c2ccccc2)cc1 (stereo unspecified)
  7.4	8	-1	-5	-19	1
> COc1ccc(CNC(=O)CN(c2cccc(OC)c2)S(C)(=O)=O)cc1
  -0.4	48	-4	16	-7	1
> Cc1ccc(S(=O)(=O)NN2C(=O)/C(=C/c3ccccn3)SC2=S)cc1
  0.9	-11	6	-2	6	1
> CNC(=O)c1cc(S(=O)(=O)NCc2ccncc2)ccc1OC
  0.5	-11	-5	-12	7	-3
> O=C(NC1CCCN(CCc2ccccc2)C1)C1CCCC1 (stereo unspecified)
  0.0	-3	5	5	32	-19
> Cc1onc(-c2ccccc2)c1C(=O)NCc1ccco1
  -0.8	1	9	7	-5	-7
> N#Cc1cc2c(nc1SCc1ccccc1)CCCCC2
  0.7	52	-9	40	-5	-7
> Cc1cc(CNC(=O)COc2ccc(F)cc2F)c2ccccc2n1
  -1.2	1	7	20	10	9
> CCc1nc2ccc(C(=O)N(C)Cc3ccccc3)cn2c1N(CC)Cc1cccc(Br)c1
  -0.6	1	.	-1	.	-21
> O=C(Cn1cc(C(F)(F)F)ccc1=O)Nc1cccc(S(=O)(=O)N2CCOCC2)c1
  -0.3	8	2	12	-8	9
> O=C(Nc1nccs1)C1CCCN1/C=C/C(=O)C(F)(F)F (stereo unspecified)
  -0.7	.	-13	4	-1	-8
> C[C@H](O)[C@@H]1CN2CCc3c([nH]c4ccccc34)[C@@H]2C[C@@H]1N(C)C(=O)NC1CCCCC1
  0.9	0	.	-11	-7	-5
> O=C(CN1C(=O)NC2(CCc3ccccc32)C1=O)Nc1ccc(Cl)cc1F (stereo unspecified)
  -0.4	2	.	8	-1	-12
> Cc1ccc(NS(=O)(=O)c2ccc3c(c2)NC(=O)CO3)cc1Cl
  0.3	.	-6	2	0	-1
> CC(C)Nc1ncnc2c1ncn2[C@H]1CN(Cc2ccncc2)C[C@@H](CO)O1
  -0.5	4	.	1	.	0
> CC(=O)Nc1ccc2nc(SCC(=O)O)sc2c1
  -0.1	0	-35	4	18	2
> CC(=NNC(=S)N1CC2CCC(CC2)C1)c1ccncn1
  0.4	-96*	.	?	10	?

# Shown as a hit in CtBP-E1A blk, of those listed so far:
SMILES | CtBP-E1A blk | Six1-Eya2 inh | TRPML1 blocker | D2 PAM
CC(=NNC(=S)N1CC2CCC(CC2)C1)c1ccncn1 | -96* | ? | 10 | ?

# (continued)
# The line under a structure holds: TRPML1 ag	CtBP-E1A blk	TRPV1 PAM	Six1-Eya2 inh	TRPML1 blocker	D2 PAM
> CCOC(=O)C1=CC[C@@H](c2ccccc2)N(S(=O)(=O)c2ccc(C)cc2)[C@H]1C=C(C)C
  0.1	4	.	4	74	-4
> Cc1ccc(N=C2NC(=O)/C(=C/c3cccn3C)S2)cc1C
  2.5	-11	.	-9	1	-19
> CN(C)CCn1c(=O)n(Cc2ccco2)c(=O)c2c3c(sc21)CCCCC3
  0.6	-4	1	-15	-6	-16
> CCN(CC(=O)Nc1c(F)cccc1F)C(=O)c1ccc(S(=O)(=O)N2CCCCC2)cc1
  -0.6	-2	-10	2	11	20
> Cc1ccc(S(=O)(=O)N(C)CC(=O)OCC(=O)N2CC(=O)Nc3ccccc32)cc1
  3.0	.	3	-6	23	15
> Cc1nn(CC#N)c(=O)n1-c1ccc(F)cc1
  -0.5	6	-3	-19	2	0
> O=C(NCc1ccccc1Cl)c1cnc2n(c1=O)CCS2
  -0.6	8	5	1	-13	-4
> Cc1cc(OCc2cc(C(=O)N(C)CCCN3CCOCC3)no2)cc(C)c1Cl
  0.9	1	6	-2	16	-23
> Cc1onc(-c2ccccc2Cl)c1C(=O)OCC(=O)c1ccc[nH]1
  1.0	5	4	-8	7	18
> CN(C)CCCN(Cc1ccccc1)C(=S)Nc1ccc(F)c(Cl)c1
  -0.4	-1	1	-3	-23	-15
> CC(OC(=O)CN1C(=O)COc2ccccc21)C(=O)NCc1ccc(F)cc1 (stereo unspecified)
  -0.2	21	5	18	7	-7
> C=CCn1c(CC#N)nnc1N1CCOCC1
  -0.4	4	2	-1	5	-10
> C/C(=N/NC(=O)c1ccncc1)c1cc2ccc(O)cc2oc1=O
  7.2	-5	-17	-85*	4	-1
> COc1ccc(Cc2nc3ccc(C(=O)NCc4cc(C)no4)cc3o2)cc1
  1.1	-13	1	-2	12	16
> CCCCn1c(N)c(N(CCC(C)C)C(=O)CC2CCCC2)c(=O)[nH]c1=O
  -0.5	-1	-9	7	-4	-3
> O=C(CN1CCCc2ccccc21)Nc1cccc(S(=O)(=O)N2CCOCC2)c1
  3.1	-10	15	-12	12	0
> CCn1c(=O)c(-c2cc(=O)[nH][nH]2)c(O)c2ccccc21
  0.0	-13	28	-15	-16	-5
> COc1cc(/C=C/C(=O)OCC(=O)Nc2ccc3c(c2)OCCO3)ccc1OCC#N
  -0.7	-19	9	-1	-5	2
> CCOc1ccc(C(C)=O)cc1COc1ccc(-n2cnnn2)cc1
  0.5	-1	24	0	8	-3
> CC(=O)N1CCN(c2ccccc2NC(=O)COc2ccc(Cl)cc2Cl)CC1
  0.0	-4	-8	0	23	-12
> O=C(Nc1cccc(S(=O)(=O)N2CCCCC2)c1)c1cnccn1
  -0.5	-3	-26	4	37	-5
> C=CCN(c1ccc(C(=O)NCCSc2ccccc2)cc1)S(C)(=O)=O
  0.7	-7	13	4	-16	-1
> O=C(Nc1cccc(C(=O)NC2CCCC2)c1)c1ccccc1
  1.2	0	12	6	-8	-13
> C[C@@H](C(=O)N1CCN(c2ccccc2)CC1)N1C(=O)C2CC=CCC2C1=O (stereo partly specified)
  1.8	3	.	5	9	2
> COc1ccccc1C=NN=Cc1ccccc1OC
  0.8	-11	.	-10	7	-11
> CCC(=O)Nc1c2c(nn1-c1ccc([N+](=O)[O-])cc1)CS(=O)(=O)C2
  .	1	?	4	.	0
> CC(C)=NNc1nc(-c2ccccc2)cs1
  -1.0	-17	23	-8	6	-1
> O=C1c2ccccc2C(=O)N1CCCOCc1c[nH]c(=O)[nH]c1=O
  0.3	0	3	-2	15	5
> Cc1cccc(NS(=O)(=O)c2cnc[nH]2)c1
  -0.3	-1	2	1	9	-12
> CC(=O)N(CCP(=O)(c1ccccc1)c1ccccc1)Cc1ccco1
  0.5	-5	-10	-5	5	-34
> O=C(O)c1ccc(NC(=O)c2ccc(Cl)cc2)c(NC(=O)c2ccc(Cl)cc2)c1
  0.6	-5	7	1	10	-4
> CN(NC(=O)c1ccc(Cl)cc1)c1ncc(C(F)(F)F)cc1Cl
  -0.9	9	20	34	3	15
> Oc1cccc2c(NC(=S)Nc3ccc(SC(F)F)cc3)cccc12
  -1.6	.	3	-15	-7	2
> O=C(CN1CCCCCC1)Nc1ccc(S(=O)(=O)N2CCCCC2)cc1
  0.5	-16	-15	-14	0	-10
> CC(C)Oc1ccc(C(=O)N2CCC(CCC(=O)NC3CC3)CC2)cc1
  -0.1	-1	.	-1	25	-9
> CC(=O)NC1(c2ccccc2)CCN(c2cc(C)nc(-c3ccccc3)n2)CC1
  0.8	-1	-17	1	12	-7
> CCOC(=O)N1CCN(C(=O)Cc2ccccc2OC)CC1
  -1.0	14	9	-13	0	0
> O=C1C2CC=CCC2C(=O)N1CNc1ccccc1 (stereo unspecified)
  -1.0	7	1	7	-2	-3
> CCN(CC)S(=O)(=O)c1cc(C(=O)OCC(=O)Nc2cccc(C)c2C)ccc1F
  4.0	2	-1	8	9	-1
> CCOC(=O)CCNC(=O)CCc1nnc(CCCc2ccccc2)o1
  -0.2	26	2	8	-7	0
> COCC(=O)n1nc(-c2ccc(Cl)cc2)nc1NCc1ccc(F)cc1
  0.8	1	0	-1	33	6
> O=S1c2ccccc2Sc2ccccc21
  0.8	-24	.	10	27	-12
> Cc1noc(C)c1C(=O)OC(C)C(=O)c1ccc(C(C)(C)C)cc1 (stereo unspecified)
  -0.5	5	.	5	-6	1
> O=C(Nc1ccc([N+](=O)[O-])cc1)/C(=C/c1cccc([N+](=O)[O-])c1)NC(=O)C1CCCCC1
  0.8	10	-4	-1	8	1
> CSCCC(NC(N)=O)C(=O)NCC1CCCCC1 (stereo unspecified)
  -0.1	9	15	15	-11	-2
> Cc1ccc(S(=O)(=O)N(CC(=O)N/N=C/c2ccco2)c2cc(Cl)cc(Cl)c2)cc1
  3.9	4	5	-19	8	-15
> Cc1ccc(S(=O)(=O)N2C[C@]3(O)C[C@@H]4C(=O)N(c5ccccc5)C(=O)[C@@H]4C[C@]3(OC(=O)NCc3ccccc3)C2)cc1
  -0.2	0	.	4	-25	-2

# Record cards (already shown). Screens in order: TRPML1 ag | CtBP-E1A blk | TRPV1 PAM | Six1-Eya2 inh | TRPML1 blocker | D2 PAM
# Cc1ccc(S(=O)(=O)N(CC(=O)N/N=C/c2ccco2)c2cc(Cl)cc(Cl)c2)cc1 in the list: 3.9 | 4 | 5 | -19 | 8 | -15
# O=C(Nc1ccc([N+](=O)[O-])cc1)/C(=C/c1cccc([N+](=O)[O-])c1)NC(=O)C1CCCCC1 in the list: 0.8 | 10 | -4 | -1 | 8 | 1
# CC(C)Oc1ccc(C(=O)N2CCC(CCC(=O)NC3CC3)CC2)cc1 in the list: -0.1 | -1 | . | -1 | 25 | -9
